Screens as filed in PubChem.
gsp antagonist: gsp mutant antagonism. gsp-mutant cells, cAMP HTRF, 30 min; control for the full effect not named in the record. Potency, µM (top dose mostly 76.9 µM), without a hit: at the highest dose activity change, negative = inhibition, hits mostly inhibitors. 340,000 tested, 0.4% active; active = falling curve of any shape with a large fitted effect; inconclusive = falling curve, mostly with a smaller effect; inactive = flat or rising curve; cell line not stated here;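 further: intracellular cAMP measured with PDE inhibitor Ro 20-1724 present during compound exposure; potency means the concentration at half of the fitted maximal effect; on the % scale 0 is the no-effect control and ±100 the full control effect; nearly all actives have a fitted effect of over 65% in size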
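HTRF cAMP read-out (cAMP-d2 plus anti-cAMP antibody-K in lysis buffer, 30 min RT). Before lysis, cells are exposed to compounds with […] for 30 min at 37C in DPBS containing Ca/Mg, BSA and Tween 20.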
ClpP mod: qHTS Assay for Activators of ClpP. 340,000 tested, 1.9% active. AID 651965, 2013. Potency, µM (titrated, usually from 57.5 µM), without a hit: at the highest dose activity change, negative = active. purified B. subtilis ClpP, FRET peptide cleavage, 20 min; active = well fitted falling curve with a large enough effect; inconclusive = small, poorly fitted or top-dose-only effect; inactive = no such curve, though single readings can be large or run the other way; further: potency means the concentration at half of the fitted maximal effect; the source files actives as falling curves though it sought activators and does not explain the sign; nearly all actives have a fitted effect of over 65% in size; many hits overshoot -100%
Target sequence (P80244 whole entry, looked up): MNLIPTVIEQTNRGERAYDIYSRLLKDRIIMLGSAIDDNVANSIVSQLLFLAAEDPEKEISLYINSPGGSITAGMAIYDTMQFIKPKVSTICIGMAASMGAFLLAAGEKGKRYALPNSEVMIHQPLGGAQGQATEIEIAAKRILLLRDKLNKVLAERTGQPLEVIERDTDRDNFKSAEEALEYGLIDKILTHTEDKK
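FRET quenching reversal measured ClpP activation: 10 microg/mL B. subtilis ClpP at pH 8 with the FRET-FV decapeptide, read at 430 nm after 320 nm excitation. The 20-min minus 0-min signal was scaled between DMSO/no-enzyme wells and ADEP (5.8 microM final).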
gsp ag: activates gsp, the McCune-Albright syndrome mutation; gsp mutant cells, cAMP HTRF, 30 min; control for the full effect not named in the record; Potency, µM (doses to about 76.9 µM), inactives show top-dose activation (cAMP increase), most hits filed as activators; 340,000 tested, 0.13% active; AID 624287; active = well fitted activation curve with a large enough effect; inconclusive = small, poorly fitted or top-dose-only effect, or another doubt; inactive = no such curve, though single readings can be large or run the other way; cell line not stated here;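 further: phosphodiesterase inhibitor Ro 20-1724 added with compounds to block cAMP breakdown; potency means the concentration at half of the fitted maximal effect; nearly all actives have a fitted effect of over 60% in size; about a fifth of the inactives were tested at one dose only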
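Cells stably selected in G418 were plated at 2000/well, grown 16-24 hr, then given compounds in DMSO with the PDE inhibitor […] (300 uM solution added) for 30 min at 37C; cAMP was read by HTRF.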
Sfp inh: Sfp phosphopantetheinyl transferase inhibition | AID 1490 | Potency, µM, without a hit: max response, negative = inhibition, most hits filed as inhibitors | 310,000 tested, 3.5% active | Biochemical Sfp PPTase activity, qHTS; active means well fitted inhibition curve with a large enough effect; inconclusive means small, poorly fitted or top-dose-only effect, or another doubt; inactive means no such curve, though single readings can be large or run the other way;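 further: the enzyme is Sfp with the accession as filed and its product quenches rhodamine fluorescence; potency means the concentration at half of the fitted maximal effect; 0% = enzyme reaction without inhibitor and -100% = no enzyme wells; top concentration of the series not given in the record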
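Sfp 15 nM + cpd, 15 min RT; start w/ rhodamine-CoA 5 uM, BHQ-2-YbbR 12.5 uM (final); 50 mM Hepes pH 7.6, 10 mM MgCl2, 0.01% NP-40, 0.01% BSA; read 525/598 nm at 0 and 30 min.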
TRPV1 potentiator: enhances activation of the human vanilloid receptor TRPV1 | TRPV1-expressing cells, Fluo-8 calcium influx, capsaicin EC20 potentiation; host cell line not named in the record; control for the full effect not named in the record | potentiation, % at 8.33 µM | 320,000 tested, 0.02% active; active means potentiation above 80%; inconclusive means 30% to 80%; inactive means below 30%; further: 0% is about no effect
Target sequence (Q8NER1 whole entry, looked up): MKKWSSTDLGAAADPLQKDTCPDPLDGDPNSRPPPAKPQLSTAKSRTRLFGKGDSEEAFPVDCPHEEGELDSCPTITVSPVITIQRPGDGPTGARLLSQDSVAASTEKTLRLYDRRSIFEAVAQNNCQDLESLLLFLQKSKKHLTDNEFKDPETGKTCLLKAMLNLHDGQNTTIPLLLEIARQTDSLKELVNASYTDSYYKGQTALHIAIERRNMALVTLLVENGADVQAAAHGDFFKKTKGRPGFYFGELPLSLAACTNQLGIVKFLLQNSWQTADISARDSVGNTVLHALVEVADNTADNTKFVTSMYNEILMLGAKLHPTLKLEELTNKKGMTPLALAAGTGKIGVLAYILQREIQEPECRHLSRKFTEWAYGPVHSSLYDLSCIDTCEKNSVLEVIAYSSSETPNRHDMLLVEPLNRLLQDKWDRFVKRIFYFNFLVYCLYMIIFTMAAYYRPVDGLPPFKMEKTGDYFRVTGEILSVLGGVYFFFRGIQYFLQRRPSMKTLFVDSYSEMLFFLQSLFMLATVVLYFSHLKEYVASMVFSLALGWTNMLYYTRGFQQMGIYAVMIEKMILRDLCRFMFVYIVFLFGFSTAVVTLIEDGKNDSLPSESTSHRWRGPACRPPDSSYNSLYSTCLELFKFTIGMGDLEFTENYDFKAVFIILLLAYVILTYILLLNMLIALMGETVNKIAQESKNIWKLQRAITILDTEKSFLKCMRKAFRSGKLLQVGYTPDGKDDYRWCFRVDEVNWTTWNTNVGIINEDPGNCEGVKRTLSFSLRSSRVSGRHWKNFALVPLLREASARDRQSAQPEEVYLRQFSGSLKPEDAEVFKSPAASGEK
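Fluo-8 calcium influx in TRPV1-expressing cells, kinetic read (ex 480/em 520 nm). Compound added and read 3 min for agonist activity, followed by capsaicin at EC20 final and 2 min further read for enhancement.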
TRPML1 inh: blocks the human TRPML1 channel; Q9GZU1; TRPML1-inducible cells, Ca2+ dye fluorescence, FDSS; hits give low values; inhibition of EC80 agonist-evoked calcium signal; activity change, negative = inhibition, % (no concentration beside the values); 390,000 tested, 0.02% active; in the data active means activity change below about -50%; inconclusive means about -30% to -50%; inactive means above about -30%;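 further: stimulus is agonist 54-4 at its EC80 concentration; on the % scale 0 is the no-effect control and ±100 the full control effect; compound concentration not given in the record; the text of the record puts the active cut at -80%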
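TRPML1-DL cells, Tet-induced overnight (~16 h, 37 °C) at 1,500 cells/well, were loaded with Ca8 no-wash dye plus quencher for 45-90 min at room temperature. Compounds were pinned during FDSS kinetic reading; agonist 54-4 at EC80 (4 uM final) then added.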
Menin MLL FP FL: inhibitors of human menin-MLL interaction, wild-type MLL peptide; 290,000 tested, under 10 active; Fluorescence polarization, fluorescein-MLL peptide displacement from menin; FP activity change, % at 61.4 µM; inconclusive = falling polarisation curve, or a change in total fluorescence; inactive = total fluorescence flat and polarisation flat or rising; no compound was filed as active; the % refers to the polarisation; negative = inhibition;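 further: % of control where 0% means no effect; inhibitors lower the polarisation; unlabelled MLL peptide was the positive control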
* marks the source's active call; other numbers are inactive results; ? = inconclusive; . = not tested or not shown; & = joins results of further samples; [ ] = remark or other dose.

smiles,TRPML1 inh,Sfp inh,gsp ag,gsp antagonist,ClpP mod,Menin MLL FP FL,TRPV1 potentiator
Cc1c(Cl)cnc(NC(=O)COC(=O)c2ccc3c(c2)OCO3)c1Cl,-19.4,-12.2%,-6.7%[15.4 µM],-17.5%,0.9%,2.4,-4.3
COc1ccc(C(=O)NC(CCSC)C(=O)N2CCCCCC2)cc1 (stereo not given),12.2,7.2%,-3.6%,5.1%,.,-1.8,-22.4
CCOc1ccc2oc(C(=O)O)c(C)c2c1,16.5,15.2%,-6.8%[15.4 µM],-8.3%,.,0.5,-0.3
COc1cc(/C=C/C(=O)N2C(=O)c3cccc(N)c3C2=O)cc(OC)c1OC,3.9,-22.9%,-32.9%[inhibitor],3.2%,-17.6%,2.2,-8.8
O=C(NCc1ccccn1)[C@H]1C[C@@H]1[C@H](NP(=O)(c1ccccc1)c1ccccc1)c1ccccc1,-12.8,21.2%&13.1%,9.3%,1.6%,-4.0%,1.0&-1.1,-7.9
COCCNCCOCCOc1ccc(Cl)c(C)c1,6.4,1.9%,-27.4%,2.7%,-0.7%,1.7,15.7
O=C(NC1CCCCC1)N1CCCC(c2nc(-c3cccs3)no2)C1 (stereo not given),-0.3,5.4%,-30.4%[inhibitor],-21.8%,-1.0%,1.8,-17.3
Cc1[nH]nc2c1C1(C(=O)N(Cc3ccc(Cl)cc3)c3ccccc31)C(C#N)=C(N)O2 (stereo not given),0.6,-6.1%,-18.9%,6.9%,-1.2%,1.2,-7.8
COC(=O)c1ccccc1NC(=S)N(C)C,31.0,18.9%,-0.4%[15.4 µM],5.1%,.,0.2,22.7
c1ccc(-c2nc(NC3CCCC3)c3ccccc3n2)cc1,18.5,5.7%,-4.1%[15.4 µM],-16.0%,1.3%,-1.0,-1.5
O=C1NC(c2ccccc2)C(c2ccccc2)N1 (stereo not given),?,.,-20.3%,-1.6%,-1.3%,.,.
C/C(CC(=O)Nc1cc(Cl)ccc1Cl)=N\NC(=O)c1ccco1,6.2,12.3%,-22.4%,-24.3%,0.3%,1.9,1.5
CCn1nc(C)c(/C=N/NC(=O)Cn2nc(C)cc2C)c1C,-4.5,4.4%,0.9%[15.4 µM],8.9%,-3.2%,.,4.3
CCCn1c(=O)c(C(=O)NNC(=O)Cc2ccccc2)c(O)c2ccccc21,1.2,8.6%,12.9%[15.4 µM],12.7%,.,.,4.4
CCN(CC)S(=O)(=O)c1ccc(N2CCOCC2)c(NC(=O)C2CCCO2)c1 (stereo not given),-10.4,-0.2%,?,3.7%,-1.1%,5.2,-18.4
S=c1[nH]ncn1NCc1ccc(Cl)cc1Cl,7.8,-23.6%,3.7%,4.5%,-3.1%,-2.5,-12.1
O=C(CNc1cccc2ccccc12)N/N=C/C=C/c1ccco1,?,-11.6%,-15.0%,-13.0%,6.7%,1.6,4.4
O=C(Nc1ccc(Br)cn1)c1ccc([N+](=O)[O-])cc1Cl,-12.7,-2.0%,-16.7%,-1.6%,.,-0.2,-16.5
COCC1CCN(C(=O)c2cc(COc3ccc(F)cc3Cl)on2)C1 (stereo not given),-3.4,.,-2.3%,.,-2.4%,.,.
COC(=O)c1cc([N+](=O)[O-])c(-n2cncn2)c([N+](=O)[O-])c1,3.4,-21.6%,-16.7%,0.9%,-2.1%,5.2,2.8
COC(=O)COc1ccc(S(=O)(=O)NCc2cccnc2)cc1C,-1.0,8.5%,-16.4%,-1.0%,-0.1%,3.4,-28.0
COc1cccc(-n2nc3c(-n4ncc(C#N)c4N)nnc(C)c3c2C)c1,1.2,-1.5%,?,11.4%,0.7%,0.7,18.3
Cc1cccc(C)c1NC(=O)COC(=O)CCc1ccc(S(=O)(=O)N2CCCCC2)cc1,21.6,13.8%,3.4%,6.5%,2.3%,-0.3,5.6
Cc1cc(Cl)ccc1NC(=O)CCC(=O)N/N=C/c1cccnc1,10.0,25.0%,-3.8%,10.9%,0.9%,.,3.6
Cc1cc(C)n(-c2nc3ccccc3nc2N2CCN(C(=O)c3ccc(Cl)cc3)CC2)n1,2.8,10.5%,-2.9%,-9.8%,-3.6%,-1.9,4.2
Fc1cccc(/C=N/Nc2ncnc3nc[nH]c23)c1,8.9,?,-3.1%,-2.1%,0.5%,1.3,10.2
Cc1ccc(S(=O)(=O)Nc2ccc3c(c2)CCC3)cc1,-14.8,-15.6%,-7.3%,-3.3%,-0.2%,-1.2,-6.4
COc1ccc(-n2sc3c(c2=S)-c2cc(OC)ccc2NC3(C)C)cc1,-25.7,?,-6.7%,-8.9%,0.7%,1.0,-12.0
C#CCOC(=O)C(NC(=O)c1ccccc1)=C(C)C,1.2,-3.0%,0.8%,11.3%,0.9%,0.1,22.6
Cc1ccc(S(=O)(=O)CCC(=O)Nc2ccccc2Br)cc1,-4.5,7.7%,?,8.0%,-0.9%,-1.7,-8.6

Given with each value named: four of the compounds above.
O=C(CNc1cccc2ccccc12)N/N=C/C=C/c1ccco1
- TRPML1 inh: ?
- Sfp inh: -11.6%
- gsp ag: -15.0%
- gsp antagonist: -13.0%
- ClpP mod: 6.7%
- Menin MLL FP FL: 1.6
- TRPV1 potentiator: 4.4
Cc1cc(C)n(-c2nc3ccccc3nc2N2CCN(C(=O)c3ccc(Cl)cc3)CC2)n1
- TRPML1 inh: 2.8
- Sfp inh: 10.5%
- gsp ag: -2.9%
- gsp antagonist: -9.8%
- ClpP mod: -3.6%
- Menin MLL FP FL: -1.9
- TRPV1 potentiator: 4.2
Cc1c(Cl)cnc(NC(=O)COC(=O)c2ccc3c(c2)OCO3)c1Cl
- TRPML1 inh: -19.4
- Sfp inh: -12.2%
- gsp ag: -6.7%[15.4 µM]
- gsp antagonist: -17.5%
- ClpP mod: 0.9%
- Menin MLL FP FL: 2.4
- TRPV1 potentiator: -4.3
Cc1ccc(S(=O)(=O)Nc2ccc3c(c2)CCC3)cc1
- TRPML1 inh: -14.8
- Sfp inh: -15.6%
- gsp ag: -7.3%
- gsp antagonist: -3.3%
- ClpP mod: -0.2%
- Menin MLL FP FL: -1.2
- TRPV1 potentiator: -6.4

(further entries)
smiles,TRPML1 inh,Sfp inh,gsp ag,gsp antagonist,ClpP mod,Menin MLL FP FL,TRPV1 potentiator
COc1ccc2cc(C(=O)N3CCCCCC3)sc(=O)c2c1OC,33.5,2.0%,?,-7.6%,-2.9%,0.2,-2.7
Cc1c(C(=O)N2CCN(c3cccc(Cl)c3)CC2)cccc1[N+](=O)[O-],24.7,-2.1%,?,-23.4%,1.9%,-2.3,6.1
S=c1[nH]ccn1-c1c(Cl)cccc1Cl,9.2,4.9%,0.1%[15.4 µM],13.1%,.,-0.5,4.1
COCC(=O)N/N=C/c1c(C)[nH]n(-c2ccccc2)c1=O,-17.2,-13.9%,-7.3%,-8.4%,.,-3.7,20.3
O=C(NC1(C(F)(F)F)C(=O)Nc2c1c(=O)[nH]c(=O)n2Cc1ccco1)C1CC1 (stereo not given),11.3,5.4%,-17.6%,1.8%,1.6%,-1.6,-5.5
COc1ccccc1CNC(=O)CCCN1C(=O)NC2(CCCC2)C1=O,-19.4,.,-6.0%[15.4 µM],4.3%,.,.,17.1
COc1ccc([C@H]2N[C@]3(CCCN(Cc4ccc(C)cc4)C3=O)[C@H]3C(=O)N(Cc4ccccc4)C(=O)[C@@H]23)cc1,-11.6,.,-16.7%,.,-0.9%,.,.
CCNS(=O)(=O)c1ccc(CCC(=O)N2CCN(c3ccccc3F)CC2)cc1,-4.9,5.2%,-0.7%[15.4 µM],-3.5%,-3.8%,-3.3,8.4
CC(C)CNC(=O)Cn1c(=O)c2c(ncn2CC(C)C)n(Cc2ccccc2)c1=O,-3.0,15.0%,-12.0%,-2.3%,0.0%,-6.9,0.7
O=C(CSc1nc2ccccc2c(=O)n1-c1ccccc1)NCc1ccc2c(c1)OCO2,-9.4,-2.9%,-5.2%,-10.5%,4.6%,-3.0,-0.3
N#Cc1c(-c2ccc(Cl)cc2)nc2n(c1=O)CCCS2,9.6,-5.1%,5.8%,-16.2%,-3.9%,2.0,-2.0
O=C(NC1CCCCC1)C(c1ccc2ncccc2c1)N(Cc1ccccc1)C(=O)c1ccc2c(c1)OCCO2 (stereo not given),11.7,-8.2%,-16.5%,-24.6%,0.4%,-1.2,-23.3
COc1cc(OC)c(OC)cc1CN1CCN(S(=O)(=O)c2ccc(F)cc2)CC1,-0.2,-10.8%,2.6%,-2.3%,0.9%,1.0,-0.3
COc1ccc(OC)c(NC2=NC3(CCCCC3)N=C(N)N2)c1,-2.1,12.7%,-24.7%,-0.5%,-0.2%,-0.2,2.8
C/C(=N\Nc1nc(C)cc(C)n1)c1ccc(N2CCOCC2)cc1,6.0,6.3%,?,-22.8%,-1.9%,1.0,2.6
CC(C)(C)CC(C)(C)NC(=O)/C=C/C(=O)O,-0.7,13.0%,15.7%[15.4 µM],-11.0%,-0.7%,3.4,2.6
O=C(NC(=S)Nc1ccccn1)c1ccco1,-1.5,56.2µM*,5.4%,9.2%,1.7%,-0.2,-5.7
CC(=O)Nc1nc2cc([N+](=O)[O-])ccc2s1,0.0,.,-61.3%[inhibitor],-2.2%,1.5%,.,0.4
O=C(O)CC(CC(=O)Nc1ccc2ccccc2n1)c1ccccc1 (stereo not given),9.0,24.8%,4.1%[15.4 µM],7.8%,.,1.8,-10.0
O=C(COC(=O)C1CCN(c2ccc(C(F)(F)F)cn2)CC1)c1ccccc1,5.0,.,-15.0%[15.4 µM],-3.1%,.,.,-0.1
C=CCC[C@H](Cc1ccc(F)cc1)C(=O)OC[C@@H](NC(=O)[C@@H](CC=C)CC(=O)N[C@H](CO)Cc1ccccc1)C(C)(C)C,1.8,.,8.4%,-18.4%,3.7%,.,.
COc1ccc(C(=S)N2CCN(C)CC2)cc1,6.7,25.1µM*,-14.9%,19.5%,-0.5%,1.0,5.3
